Beta2AR agonist = agonists of human beta-2 adrenergic receptor inducing internalization. Am2.2-beta2AR cells, FAP receptor internalization, flow cytometry; reference of the scale not given here. response, % (test concentration not listed). 340,000 compounds, 0.43% hits;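 active means response above a set limit, near 3 SD of response in nonfluorescent compounds, cut at about 42% in these data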;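 further: stock transfer was 100 nL into about 11 µL; a reference agonist was the positive control; negative values mostly stem from fluorescent compounds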
Target sequence (P07550 whole entry, looked up): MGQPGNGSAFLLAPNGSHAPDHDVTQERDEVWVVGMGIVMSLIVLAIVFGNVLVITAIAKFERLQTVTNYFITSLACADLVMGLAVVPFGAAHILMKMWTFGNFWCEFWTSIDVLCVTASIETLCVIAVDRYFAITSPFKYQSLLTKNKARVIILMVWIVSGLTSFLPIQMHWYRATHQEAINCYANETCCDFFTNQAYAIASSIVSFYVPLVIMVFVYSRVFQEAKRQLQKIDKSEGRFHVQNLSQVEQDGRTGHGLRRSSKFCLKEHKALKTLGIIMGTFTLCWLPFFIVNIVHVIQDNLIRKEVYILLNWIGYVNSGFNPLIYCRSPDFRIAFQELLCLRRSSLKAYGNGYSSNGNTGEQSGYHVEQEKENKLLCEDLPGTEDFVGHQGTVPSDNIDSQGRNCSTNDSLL
RanGTP-Impb inh = inhibitors of RanGTP-importin-beta interaction, primary screen, biochemical, FRET, CFP-Ran, YFP-importin-beta, homogeneous; cell-free CFP-Ran/YFP-importin-beta FRET ratio; inhibition, % (no concentration beside the values); 300,000 compounds, 1.1% hits;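 active means most replicates above 15%; inconclusive means exactly half above 15%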;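 further: 0% = DMSO wells and 100% = Ran loaded with GDP instead of GTP; wells of about 40 µL received 100 nL stock; the first replicate is given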
Bfl-1 A1 inh = inhibitors of the anti-apoptotic protein A1, read as caspase activation. 330,000 compounds, 0.066% hits. MEF A1-2A-BIM cells, Caspase-Glo 3/7 luminescence, 3 h; percent of clofoctol response, vehicle zero. AID 2462. caspase activation, % (concentration not given with the values);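 active means over half of replicate activation scores above 10%, or exactly half above 10 with the replicate mean above 10; inconclusive means replicate mean below 10 yet half the replicates above 10; inactive means over half of replicates below 10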;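 further: wells of about 30 µL received 50 nL stock; many hits fall short of the cut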
Calb FLC = C. albicans growth modulation with fluconazole | C. albicans CaCi-2 (fluconazole-resistant clinical isolate) + fluconazole, Alamar Blue growth, 48 h | growth inhibition, % (test concentration not listed) | 300,000 compounds, 0.57% hits | AID 1979;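 active means most replicates above 75%; inconclusive means exactly half above 75%; inactive means most below 75%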;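 further: all wells also contain fluconazole at 8 µg/ml as a sub-toxic cotreatment; 0% = median of DMSO wells and 100% = median of geldanamycin control wells; wells of about 8 µL received 7.5 nL stock; the first replicate is given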
Beta cell apopt = blocks beta cell apoptosis | INS-1E cytokine-induced death, ATP luminescence, 48 h; percent of positive-control rescue, neutral wells zero | protection from apoptosis, % (no concentration beside the values) | 300,000 compounds, 0.8% hits | AID 435005;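 active means all replicates at 75% or more, or half of them and the mean; inconclusive means half reach 75% but not the mean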;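 further: 0% = cytokine-treated negative control wells and 100% = positive control rescue; higher means more ATP so stronger rescue from cytokine killing; wells of about 40 µL received 100 nL stock; the first replicate is given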
LANA-H2B inh = blocks KSHV LANA binding to histone H2A/H2B; Q9QR71; 320,000 compounds, 0.6% hits; cell-free LANA-H2A/H2B peptide, fluorescence polarization; inhibition, % (no concentration beside the values); in the data active means inhibition mostly above about 10%, no sharp cut-off; inactive means mostly below about 6.7%;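 further: stock transfer was 7.5 nL into about 10 µL; 0% = median of vehicle wells and 100% = median of positive control wells; one replicate is shown; the record names a cut of 25% in any replicate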
T cruzi inh = blocks replication of Trypanosoma cruzi; T. cruzi beta-gal in NIH3T3, luminescence, 90 h; inhibition, % (concentration not given with the values); 300,000 compounds, 1.4% hits; AID 1885;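 active means mean inhibition across valid replicates above about 55%, limit read from the data; inconclusive means mean below that limit but half or more replicates reach it; inactive means mean below it, under half of replicates reach it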;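 further: signal also drops with host cell toxicity which is not excluded here; 0% = plate median of DMSO wells and 100% = zero luminescence signal; higher percent means less beta-gal luminescence so fewer parasites; stock transfer was 50 nL into about 50 µL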
UCH37 DUB inh = blocks the human deubiquitinase UCH37; 330,000 compounds, 0.33% hits; Q9Y5K5; inhibition, % (no concentration beside the values); purified proteasome/UCH37, Ub-AMC cleavage fluorescence;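 active means mean of two replicates above 20%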;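 further: 0% = compound-free wells with enzyme and 100% = wells lacking proteasome; stock transfer was 100 nL into about 20 µL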
Target sequence (Q9Y5K5 whole entry, looked up): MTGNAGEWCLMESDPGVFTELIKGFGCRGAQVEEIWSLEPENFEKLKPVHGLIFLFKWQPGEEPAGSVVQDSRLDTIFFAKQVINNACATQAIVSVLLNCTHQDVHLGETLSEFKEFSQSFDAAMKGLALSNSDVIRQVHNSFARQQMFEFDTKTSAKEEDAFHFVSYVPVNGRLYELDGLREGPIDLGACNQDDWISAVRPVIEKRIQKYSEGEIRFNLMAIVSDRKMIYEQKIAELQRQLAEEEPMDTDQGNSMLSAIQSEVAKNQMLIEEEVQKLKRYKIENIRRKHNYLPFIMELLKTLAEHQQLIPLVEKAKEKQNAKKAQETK
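Material: human UCH37 enzyme supplied as purified proteasome complex / Amount: 0.15 nM proteasome as dispensed / Buffer or medium: pH 7.4 Tris-HCl (50 mM) with ovalbumin, ATP-MgCl2, DTT / Times: preincubation 30 min, reaction 25 min, room temperature / Technique: AMC fluorescence from Ub-AMC cleavage, excitation 355 nm, emission 460 nm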
Numbers without * were called inactive; i = inactive; ? = inconclusive; / = no result given.

Structure	UCH37 DUB inh	Beta2AR agonist	Bfl-1 A1 inh	Calb FLC	Beta cell apopt	T cruzi inh	LANA-H2B inh	RanGTP-Impb inh
CCOC(=O)c1ccccc1NC(=O)CSc1nnc(C(C)C)n1CC	0.0	-9	0.5	-17	4	4	6.0	4.3
C#CCOCCOCCOCCNc1nc(N2CCN(C(=O)CCCCCCCCCCNC(=O)[C@H](CCCCN)n3cc(C)nn3)CC2)nc(N2CCN(C(=O)CCCCCCCCCCNC(=O)[C@@H]([C@H](C)O)n3cc(C)nn3)CC2)n1	1.9	26	2.6	/	10	/	0.1	/
Cc1occc1C(=O)NNC(=O)Cc1ccccc1	5.7	7	0.9	-4	/	-15	3.3	-4.9
COc1ccc(NC(=S)NCCc2ccc(F)cc2)c(OC)c1	0.8	-12	0.4	-4	4	0	-7.1	-2.6
COc1ccc2cc3cc(C(=O)N4CCN(c5ccccc5)CC4)oc3nc2c1	-1.5	-7	-0.9	-6	-2	-15	1.5	2.1
CC(C)NC(=O)c1[nH]nc2c1CCc1ccccc1-2	5.4	9	-0.6	14	-2	-9	2.4	4.2
O=C(NCCN1CCN(C(=O)c2cccc(Br)c2)CC1)C(=O)NCc1ccccc1	1.3	0	0.8	-29	-2	18	3.1	-1.3
Cc1ccccc1NC(=S)N=Nc1c(O)n(C)c2ccc(S(=O)(=O)N3CCOCC3)cc12	9.6	1	-0.8	-1	53	44	1.5	1.9
COc1cccc(CC(=O)Nc2nc(C)cs2)c1	1.8	-2	-0.5	-1	2	-6	3.7	-3.6
COc1cccc(-c2nc(-c3ccccc3)nc(N3CCN(C)CC3)c2C#N)c1	0.0	6	0.7	-4	13	43	1.6	1.8
O=C(Nc1ccc2[nH]ccc2c1)c1ccccc1	2.4	-1	-12	1	0	-7	-0.7	-0.1
COCCSc1nnc(NC(=O)CCS(=O)(=O)c2ccccc2)s1	-1.1	-4	-0.3	88*	-11	-33	4.6	-4.3
O=C(Cn1c(=O)sc2ccccc21)Nc1ccc(S(=O)(=O)N2CCCC2)cc1	4.4	12	0.3	-1	0	0	-2.8	?
O=C(/C=C/c1ccco1)N(Cc1cccc(F)c1)C1CCS(=O)(=O)C1 (stereo not given)	6.3	0	0.3	-7	-4	-16	-1.1	-0.1
COc1ccc([C@@H]2[C@@H]3C(=O)N(C(C)(C)C)C(=O)[C@@H]3[C@]3(Cc4ccc(Cl)cc4)C(=O)N(c4ccc(OC)cc4)C(=O)N23)cc1	0.1	-14	-0.4	-4	-3	7	0.8	-1.8
CC(=O)NC(CC(=O)NC(C)c1ccc(Cl)cc1Cl)c1ccccc1 (stereo not given)	1.6	-8	0.1	5	3	3	0.3	2.0
Cc1cccc(NS(=O)(=O)c2cc(Cl)ccc2Cl)n1	1.7	24	0.7	56	-4	4	8.4	3.0
O=C(NCc1ccc2c(c1)OCO2)c1c(-c2ccccc2)sc2ccccc12	-0.6	0	0.2	/	0	/	-4.8	/
COc1ccccc1C(O)c1nccn1C (stereo not given)	1.9	3	0.2	0	-6	1	6.3	-0.5
COc1ccc(C(=O)Nc2ccnn2C2CCN(CCC(C)c3ccc(C)o3)CC2)cc1 (stereo not given)	2.8	3	0.9	3	-1	54	1.3	1.7
CN(C(=O)COC(=O)C1(C)CC1(Cl)Cl)c1c(N)n(Cc2ccccc2)c(=O)[nH]c1=O (stereo not given)	2.4	-2	-0.1	/	-5	/	3.4	/
CN(C)c1ccc(-c2nc3cnccn3c2Nc2ccc3c(c2)OCCO3)cc1	-49	-1	0.2	-6	8	17	-5.2	-8.0
O=C(Nc1ccc(S(=O)(=O)N2CCOCC2)cc1)c1ccccc1F	5.7	-7	0.6	0	/	-10	0.8	1.5
COc1ccc(OCC(O)CN2C(=O)c3ccccc3S2(=O)=O)cc1 (stereo not given)	4.7	7	0.9	-9	-1	-7	0.4	-3.7
O=C1CC(N2CCN(c3ccccc3F)CC2)C(=O)N1c1ccc(F)cc1 (stereo not given)	0.2	-1	-0.7	-1	-6	-3	-1.4	-0.2
COC(=O)c1c(NC(=S)NNC(=O)c2ccc(Cl)s2)sc(C(=O)N(C)C)c1C	12	-4	0.1	6	-4	10	1.6	-3.1
COc1ccccc1-c1c(C)oc2c(CN3CCCC(C)C3)c(O)ccc2c1=O (stereo not given)	i	-5	/	3	/	-3	/	-5.8
O=C(Cn1ccnc1)c1ccc(Cl)cc1	-0.4	-18	0.3	0	0	59*	6.1	8.8
CCOC(=O)c1ccc(OS(=O)(=O)c2ccccc2)c(OC)c1	1.7	4	0.2	-1	2	-14	0.6	2.0
CCS(=O)(=O)N1CCCC(C(=O)c2ccc(OC)cc2C)C1 (stereo not given)	2.1	3	0.1	-5	-6	-2	3.1	0.7
Cc1nnc(SCC(=O)Nc2ccc3c(c2)OCO3)[nH]c1=O	5.5	-5	-0.9	9	-2	-24	1.3	-0.6
O=Cc1ccc(-n2cccn2)cc1	1.2	2	-0.1	5	-4	-13	2.0	-3.4
Cc1csc(SCC(=O)c2c(N)n(CC(C)C)c(=O)n(C)c2=O)n1	5.5	12	-0.2	-4	18	-59	5.6	-2.0
NC(=O)C1CCN(C(=O)CCNS(=O)(=O)c2ccccc2F)CC1	1.2	-9	-1.3	/	-1	/	1.7	/
Cc1coc2c(C)c3oc(=O)cc(-c4ccccc4)c3cc12	-11	3	?	-4	4	-13	0.0	1.5
Cc1ccc(C(=O)/C=C\Nc2ccc(C)c(C)c2)cc1	/	10	-4.2	5	-8	7	-1.2	3.7
COc1ccc2c(c1)-c1nc(/N=C/c3ccc(O)c(OC)c3)sc1CC2	/	22	0.4	/	-3	/	-5.5	/
O=C(NCCCCNC(=O)c1c(F)c(F)c(F)c(F)c1F)c1c(F)c(F)c(F)c(F)c1F	2.4	0	-0.2	-6	/	-7	3.4	-0.9
O=C(CSc1cccc(C(F)(F)F)c1)Nc1cc(S(=O)(=O)N2CCCC2)ccc1Cl	-0.2	-9	-0.2	5	-7	4	0.5	2.8
COc1ccc(-c2nn3c(COc4ccccc4)nnc3s2)cc1OC	-8.9	-4	0.5	42	-1	-2	-0.5	11
COC(C(=O)Nc1ccc(S(=O)(=O)Nc2c(C)cccc2C)cc1)c1ccccc1 (stereo not given)	0.5	6	2.3	-3	-3	1	3.1	1.1
COCCN(C(=S)Nc1c(C)cccc1C)C(C)c1cccs1 (stereo not given)	0.8	-5	0.5	-5	1	-3	-2.2	-1.5
CC1CCC(NC(=O)c2cc(S(=O)(=O)N3CCCCC3)c[nH]2)CC1 (stereo not given)	7.7	10	0.8	-7	-5	4	-2.0	-1.9
COc1ccc(Cl)cc1S(=O)(=O)Nc1ccncc1	3.6	-2	0.1	4	/	-11	-0.2	-8.2
CC1CCC2(CC1)NC(=O)N(CC(=O)NC(=O)NC1CCCC1)C2=O (stereo not given)	3.6	-7	0.2	-11	/	-1	-2.4	0.6
Cc1ccc(NC(=O)CC(C)CC2=NS(=O)(=O)c3ccccc3N2)cc1 (stereo not given)	6.0	1	-0.4	-10	0	-10	-0.6	1.7
COc1ccccc1C(C(=O)NC1CCCC1)N(C(=O)c1csnn1)C1CC1 (stereo not given)	0.4	11	-0.1	2	10	-12	-4.9	5.4
CC1(C)CC(=O)C=C(Nc2ccc(Cl)cc2)C1	4.4	-8	0.4	1	-11	14	2.8	5.3
Cc1cc(C(=O)Nc2ccccc2N2CCOCC2)c2ccccc2n1	-0.4	-5	0.1	-1	-5	-9	3.7	3.9
O=C(NCCCN1CCCC1=O)C1CCN(S(=O)(=O)c2ccccc2)CC1	1.7	-9	0.7	/	2	/	2.3	/
CCCS(=O)(=O)c1c(S(=O)(=O)CCC)c2ccc(C(C)=O)cn2c1C(=O)OC	-113	2	0.1	10	-6	9	-2.8	-1.9
O=C(CCc1nc(-c2ccccc2F)no1)Nc1cccnc1	2.5	22	0.5	1	1	-15	-1.4	4.4
CCCCN(C(=O)Cn1nnc2ccccc21)C(C(=O)NCc1ccco1)c1ccncc1 (stereo not given)	3.0	-1	0.6	1	-4	-2	-2.5	-1.0
Cc1c(Cc2ccccc2)c(=O)oc2c(C)c(OC(C)C(=O)NCC3CCC(C(=O)O)CC3)ccc12 (stereo not given)	-118	4	-0.4	-2	2	-7	-0.7	3.1
Cc1ccc(NC(=O)N(CCCN2CCOCC2)Cc2cccnc2)cc1C	5.2	2	0.0	5	-3	26	-1.3	7.9
Cc1ccc(C(=O)O)cc1N1C(=O)c2cccc3cc(Br)cc(c23)C1=O	1.4	-2	-1.7	-1	-3	-13	-2.8	-14
Cc1ccc2nc(-c3cccnc3)oc2c1	-36	5	-9.7	33	-5	-1	0.0	?
CC(=O)N1c2ccccc2NC(=O)C1(C)C	1.4	-5	-0.1	-7	3	0	4.1	-1.0
Cc1csc(-c2coc3cc(O)cc(C)c3c2=O)n1	0.8	-8	-8.4	12	/	1	8.1*	1.7
O=C(COC(=O)/C=C/c1ccc([N+](=O)[O-])cc1)NNC(=O)c1ccccc1	5.1	-1	0.3	/	-1	/	0.0	/

Later entries
Structure	UCH37 DUB inh	Beta2AR agonist	Bfl-1 A1 inh	Calb FLC	Beta cell apopt	T cruzi inh	LANA-H2B inh	RanGTP-Impb inh
NC(=NC(=O)c1ccc(OCC(F)(F)F)nc1)c1ccccc1	3.8	3	1.6	-6	-5	-4	1.1	?
COc1ccc(CCNc2cc(-c3ccccc3)nc3ncnn23)cc1	-0.2	3	-0.1	-4	10	2	-14	6.8
CSc1ccc(CN2CCN(C(C)C)C(CCO)C2)cc1 (stereo not given)	4.8	-11	0.5	4	-2	20	2.3	2.5
COc1ccc(C(=O)NCC(=O)N2CCC(C)CC2)cc1OC	-1.4	7	1.4	-2	-1	-8	1.7	4.2
CN(C(=O)CSc1nncn1-c1ccccc1)c1ccccc1	2.3	-6	1.4	-12	-1	-3	-5.3	-0.7
CCCC(=O)Nc1cc(OC)c(NC(=O)NC2CCCCC2)cc1OC	4.8	-8	0.2	-22	2	-8	3.7	4.8
COc1ccc2nc(NC(=O)CSc3nc(SC)ns3)sc2c1	2.7	9	0.4	?	-6	3	-0.6	1.7
CCc1ccc(OCCCC(=O)Nc2nnc(C3CCCO3)s2)cc1 (stereo not given)	1.5	1	-1.1	18	-5	-6	2.9	3.2
Cc1ccc(SC(C)C(=O)Nc2cccc(N(C)S(C)(=O)=O)c2)cc1 (stereo not given)	2.6	4	0.4	-34	-5	-20	-2.3	0.3
CCCCN(Cc1cccs1)S(=O)(=O)c1csc(C(N)=O)c1	0.0	7	-1.1	1	-2	2	2.1	13
CCOc1cccc(/C(O)=C2/C(=O)C(=O)N(Cc3ccco3)C2c2ccncc2)c1 (stereo not given)	11	5	0.4	-2	-1	1	1.9	-2.0
CN(C)N=C1c2cc(S(=O)(=O)N(C)C)ccc2-c2ccc(S(=O)(=O)N(C)C)cc21	4.5	0	0.3	-2	14	21	1.8	-1.9
